# Assay outcomes deposited in PubChem by National Center for Advancing Translational Sciences (NCATS).
# VDR inh = vitamin D3 receptor (human) inhibition; Potency, µM, for inactives: max response, negative = inhibition, hits mostly inhibitors; hit rate 0.93% among 400,000; AID 504847; P11473; VDR-SRC2-3 peptide fluorescence polarization, 2 h; active means well fitted inhibition curve with a large enough effect; inconclusive means small, poorly fitted or top-dose-only effect, or another doubt; inactive means no such curve, though single readings can be large or run the other way; further: series mostly up to about 120 µM
# Target sequence (P11473 whole entry, looked up): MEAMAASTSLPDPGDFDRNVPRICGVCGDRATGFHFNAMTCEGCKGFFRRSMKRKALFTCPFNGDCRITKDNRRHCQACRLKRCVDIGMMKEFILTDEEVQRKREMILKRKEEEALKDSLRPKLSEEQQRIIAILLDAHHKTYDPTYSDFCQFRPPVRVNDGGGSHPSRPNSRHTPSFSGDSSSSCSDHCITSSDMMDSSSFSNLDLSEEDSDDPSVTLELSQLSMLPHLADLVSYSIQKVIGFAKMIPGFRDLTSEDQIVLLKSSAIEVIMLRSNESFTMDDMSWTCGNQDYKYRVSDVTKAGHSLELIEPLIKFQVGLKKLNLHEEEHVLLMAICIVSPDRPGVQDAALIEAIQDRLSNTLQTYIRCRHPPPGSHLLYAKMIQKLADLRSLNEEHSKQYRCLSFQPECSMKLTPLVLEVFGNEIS
#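 VDR–SRC2-3 interaction, FP format. Cmpds 23 nl via pintool, brief spin, 2 h ambient incubation.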
# An asterisk follows results filed as active; u = inconclusive. On the % scale 0 is the no-effect control and ±100 the full control effect; potency means the concentration at half of the fitted maximal effect. These rows are one share of the data; rates above refer to the full screens.
SMILES,VDR inh
Cc1ccnc(-n2c(CCN3C(=O)c4ccccc4C3=O)nc3ccccc3c2=O)c1,15%
O=S(=O)(c1ccc2c(c1)CCCC2)N1CCNCC1,-3%
CN(c1ccc(C(=O)NC2CCCC2)cc1)S(=O)(=O)c1ccccc1,8%
COc1ccc(C2=CCCCCC2)c(OC)c1OC,4%
CC(C)C[C@@H](CC(=O)N[C@@H](CCC(=O)O)CC(=O)O)NC(=O)[C@@H]1CCCC[C@H]1NC(=O)C[C@H](CCCN)NC(=O)C[C@H](CO)NC(=O)[C@@H]1CNCC[C@H]1N,4%
[O-]/[N+](=C\c1cccc(Br)c1)c1ccccc1,u
CC(C)(C)c1ccc(NC(=O)COC(=O)CCN2C(=O)c3cccc([N+](=O)[O-])c3C2=O)cc1,1%
Cc1ccc(/C(O)=C2\C(=O)C(=O)N(C)C2c2cccc([N+](=O)[O-])c2)cc1 (stereo not drawn),2%
CN1CCN(c2ccccc2NC(=O)COc2ccc(C3CCCCC3)cc2)CC1,-12%
Cc1ccc(N2CN(CCc3ccccc3)CNC2=S)cc1,u
O=C(N/N=C/c1cccs1)C(O)c1ccccc1 (stereo not drawn),-7%
Cc1cccc(C)c1NC(=O)Cn1c(=O)n(CCC(=O)NCc2ccccc2Cl)c(=O)c2sccc21,31%
CCOC(=O)c1sc(NC(=O)Cc2ccc(F)cc2)nc1C,-6%
CCCC12CN3CC(C)(CN(C1)C3c1ccco1)C2=O (stereo not drawn),u
Cc1ccc(NC(=O)[C@@H](CC(C)C)NC(=O)[C@@H]2Cc3ccccc3CN2)cc1,6%
Cc1ccccc1OCCn1c(CCNC(=O)C(C)(C)C)nc2ccccc21,-3%
O=C(Nc1ccc(Cl)cc1)C(c1ccccc1)N(CCO)CCO (stereo not drawn),10%
CCOC(=O)c1cnc2ccc(Cl)cc2c1NCCN(C)C,10%
Cc1ccc(C(=O)COC(=O)c2cnccn2)cc1,7%
CCc1nc2nc(C)cc(Nc3ccc(Br)cc3F)n2n1,-23%
CC(=O)N1CCOc2ccc(S(=O)(=O)N3CCCCC3)cc21,-4%
COc1cc(Br)cc(Br)c1OCC(=O)N/N=C/c1c(C)n(C)n(-c2ccccc2)c1=O,-1%
CCCCCOc1ccccc1Cn1c(=O)oc2ccc(C)cc21,-3%
O=C(COc1ccc([N+](=O)[O-])cc1)Nc1nnc(-c2cccnc2)s1,-22%
COc1ccc(CN(C)C(=S)Nc2ccc(Cl)cc2)cc1,-22%
Cc1ccc(C(O)C2=CCCC2=O)cc1 (stereo not drawn),-3%
CC(Sc1nc2ccccc2c(=O)n1CC1CCCO1)C(=O)N(C)Cc1ccccc1 (stereo not drawn),-5%
CCC(C)C(NC(=O)OC(C)(C)C)C(=O)NC(C(=O)N1CCCC1C(N)=O)C(C)CC (stereo not drawn),9%
O=C(CSC(=S)N1CCCC1)N/N=C/c1c(O)[nH]c(=S)[nH]c1=O,-11%
O=S(=O)(NCc1nc2cccnc2n1Cc1ccccc1)c1ccc2c(c1)CCCC2,12%
CCN(CC(=O)Nc1ccc(Br)cc1)C(=O)Cc1cccc(F)c1,-3%
Cc1cc(C)c2sc(NC(=O)c3ccc([N+](=O)[O-])o3)nc2c1,-4%
Cc1c(NC(=S)NC(=O)C2CCCCC2)c(=O)n(-c2ccccc2)n1C,1%
Cc1cc(NC(=O)C2(c3ccccc3)CCCC2)no1,2%
CC(C)CN(C(=O)c1ccco1)c1nc2ccccc2s1,1%
O=C(Oc1ccccc1)c1ccccc1OS(=O)(=O)c1ccccc1,13%
COC(=O)c1ccc(Cl)c(NC(=O)CN2CCN(Cc3ccccc3)CC2)c1,-11%
COc1ccc2oc(C(=O)OCC(=O)N3CCN(c4ccccc4)CC3)c(C)c2c1,-5%
CC(=O)C(Cc1ccccc1)NC(=O)COC(=O)c1cccc(C)c1[N+](=O)[O-] (stereo not drawn),0%
COc1ccccc1CNC(=O)CCN1C(=O)COc2ccccc21,-16%
CN1CCN(C(=O)c2ccc3c(=O)n(Cc4ccc(Cl)cc4)c(=S)[nH]c3c2)CC1,1%
Cc1nn(C)cc1C(=O)/C=C/c1ccc([N+](=O)[O-])cc1,-4%
O=C(NNC(=O)c1cccc(C(F)(F)F)c1)c1ccncc1,-11%
N#CC1=C(N)Oc2n[nH]c(CSc3ccccc3)c2C12C(=O)Nc1ccccc12 (stereo not drawn),12%
Cc1cc(-c2nnc(CCC(=O)NC(C)c3ccccc3Cl)o2)no1 (stereo not drawn),6%
CC(C)(C)c1ccc(C(=O)c2c[nH]c(C(=O)NCCCn3ccnc3)c2)cc1,13%
COc1ccccc1C(=O)N/C(=C\c1ccc(Br)cc1)C(=O)NCC(=O)O,-14%
CCCCOC(=O)C1=C(C)Nc2ncnn2C1c1ccc(OCC)c(OC)c1 (stereo not drawn),-12%
O=C(CSc1ncccn1)N1CCN(C(=O)CSc2ncccn2)CC1,-10%
Cc1cc(C)cc(N(CCC#N)C(=O)CSc2ncnc3sccc23)c1,10%

# Molecules listed so far that have a nitro group on carbon (six):
SMILES,VDR inh
CC(C)(C)c1ccc(NC(=O)COC(=O)CCN2C(=O)c3cccc([N+](=O)[O-])c3C2=O)cc1,1%
Cc1ccc(/C(O)=C2\C(=O)C(=O)N(C)C2c2cccc([N+](=O)[O-])c2)cc1 (stereo not drawn),2%
O=C(COc1ccc([N+](=O)[O-])cc1)Nc1nnc(-c2cccnc2)s1,-22%
Cc1cc(C)c2sc(NC(=O)c3ccc([N+](=O)[O-])o3)nc2c1,-4%
CC(=O)C(Cc1ccccc1)NC(=O)COC(=O)c1cccc(C)c1[N+](=O)[O-] (stereo not drawn),0%
Cc1nn(C)cc1C(=O)/C=C/c1ccc([N+](=O)[O-])cc1,-4%

# (listing goes on)
SMILES,VDR inh
CCN(C(=O)c1nn(-c2ccc(OC)c(Cl)c2)c(=O)c2c1c1ccccc1n2C)c1cc(OC)ccc1OC,-19%
NC(=O)c1c(NC(=O)c2ccccc2C(=O)O)sc2c1CCCC2,-16%
COc1ccc(-c2ccc3c(c2)S(=O)(=O)c2cccc(C(=O)NC4CCCCC4)c2C3=O)cc1OC,5%
CN(CC(=O)Nc1ccccc1C(F)(F)F)C(=O)COc1ccccc1Cc1ccccc1,-10%
Cc1ccc(NC2=NCC(Cc3ccc(Br)cc3)S2)cc1 (stereo not drawn),6%
COc1ccc(Cc2nc3ccc(C(=O)NCC(C)(C)OC)cc3o2)cc1,-11%
Cc1cc(-c2ccco2)n(-c2ccccc2)n1,-6%
COc1cc2c(cc1OC)C(c1ccc(N(C)C)cc1)CC(=O)N2 (stereo not drawn),-18%
Cc1nc(CCNC(=O)Cc2ccccc2)cs1,-1%
CCCCSc1nnc(-c2ccc(C)cc2)c2ccccc12,-25%
CCOC(=O)CSc1nnc(Cc2ccccc2)n1CC1CCCO1 (stereo not drawn),1%
NC(=O)C1CCN(C(=O)Nc2csc3ccccc23)CC1,-2%
COc1ccccc1CNC(=O)CS(=O)(=O)Cc1nc(-c2ccccc2C)oc1C,6%
CCOC(=O)c1ccc(S(=O)(=O)N2CCC(N3CCCCC3)CC2)cc1,6%
COc1ccc(N(C(=O)c2snc(C(N)=O)c2N)C(C(=O)NC2CCCCC2)c2ccc(C)o2)c(OC)c1 (stereo not drawn),5%
CC(=O)c1cn(CCCCCCCn2cc(C(C)=O)c(=O)[nH]c2=O)c(=O)[nH]c1=O,18%
Cc1cc(C)cc(OCC(=O)Nc2ccc(-c3nc4ccccc4s3)cc2)c1,-2%
Cc1cnc(C(=O)OCC(=O)Nc2cccc(S(=O)(=O)N3CCCCC3)c2)cn1,-7%
O=C(O)/C(=C\c1ccccc1)c1ccc2ccccc2c1,-2%
COc1ccc(-c2cc(-c3nnc(COC(=O)CC4CC5CCC4C5)o3)c3ccccc3n2)cc1OC (stereo not drawn),-3%
O=C(CN1CCN(CC(=O)c2ccc(F)cc2)CC1)Nc1ccccc1Cl,-12%
CN(Cc1ccccc1)C(=O)c1ccc(NC(=O)Cc2ccc(NC(=O)C3CCCN(C(=O)C4CCC4)C3)cc2)cc1 (stereo not drawn),-15%
COc1nc(N(C)C)nc(N(C#N)S(=O)(=O)c2ccc(C)cc2)n1,-9%
COc1ccc(-c2cc(C(=O)n3cnc4ccccc43)c3ccccc3n2)cc1,17%
COc1ccc(C(=O)NCCNc2ccc([N+](=O)[O-])cn2)cc1,2%
Cn1nnnc1SCCNCc1ccccc1F,15%
CCOC(=O)N1CCC(Nc2ccc(N3C(=O)C4CCCCC4C3=O)cc2[N+](=O)[O-])CC1 (stereo not drawn),-1%
Cc1ccccc1NC(=O)c1cnc2sc(N3CCCC3)nn2c1=O,1%
O=C(CCc1nnc(Cc2c[nH]c3ccccc23)o1)NC(C1CC1)C1CC1,-21%
Cc1ccc(S(=O)(=O)c2nnn3c2nc(NC(C)C)c2cc(Cl)ccc23)cc1C,11%
Cc1[nH]c(C)c(S(=O)(=O)N2CCN(c3cccc(Cl)c3)CC2)c1C(=O)N1CCCC1,1%
CCOC(=O)c1c(C)[nH]c(C(=O)C(C)OC(=O)c2cnc(C)cn2)c1C (stereo not drawn),2%
Fc1c(F)c(F)c(CSc2nc3ccccc3[nH]2)c(F)c1F,18%
Clc1ccc(-c2nnc3n2CCCCC3)cc1,-4%
CCOc1ccccc1NC(=O)C(Cc1ccccc1)NS(=O)(=O)c1ccc(Br)s1 (stereo not drawn),-23%
O=C(COC(=O)CNC(=O)C1CCCCC1)Nc1ccc2ccccc2c1,-18%
O=c1c2ccccc2cnn1Cc1n[nH]c(=S)n1-c1ccc(F)c(Cl)c1,-3%
O=C(/C=C/c1ccccc1)N1CCN(Cc2cc(=O)n3nc(-c4ccccc4Cl)sc3n2)CC1,-1%
Cc1cc(-c2ccccc2)n(-c2ccc(C(N)=O)cc2)n1,-5%
CN(/N=C/c1ccc(O)cc1O)c1ncc(C(F)(F)F)cc1Cl,-2%
CCOCCCNC(=O)C1CCN(S(=O)(=O)N2CCCC2)CC1,-1%
COc1ccccc1/C=C/C=N/N1CCN(Cc2ccc(Cl)cc2)CC1,-19%
CS(=O)(=O)N1CCc2cc(C(=O)Nc3cccc(F)c3)ccc21,-2%
CCCCc1c(O)nc(SCC(=O)O)[nH]c1=O,-4%
Cc1cc(C(=O)N/N=C/c2c3ccccc3cc3ccccc23)n[nH]1,10%
COc1ccc(N(C(=O)CNC(=O)c2ccco2)C(C(=O)NCC2CCCO2)c2ccccc2)cc1Cl (stereo not drawn),-6%
Cc1ccc(-c2cc(C(=O)N3CCN(S(=O)(=O)c4ccc(Br)s4)CC3)[nH]n2)c(C)c1,10%
COc1cccc(C(=O)Nc2ccc(C(=O)c3ccncc3)cc2)c1,-12%
Cc1ccc(N2CC(C(=O)Nc3nnc(SCC(=O)Nc4cc(C)on4)s3)CC2=O)cc1 (stereo not drawn),-24%
CC(C)OCCCNC(=O)CCCN1C(=O)CCn2nc(-c3cccn3C)cc21,12%

# (continued)
SMILES,VDR inh
O=[N+]([O-])c1ccc(C(O)CSC(=S)N2CCCCC2)cc1 (stereo not drawn),10%
O=C(c1ccccc1NS(=O)(=O)c1cccc([N+](=O)[O-])c1)N1CCOCC1,2%
Cc1ccc(C(=O)Nc2nccc(C)n2)cc1,-13%
Cc1ccc2c(c1)cc(C(=O)N1CCN(c3ccccn3)CC1)n2C,1%
Nc1nc(SCC(=O)Nc2ccccc2Oc2ccccc2)n[nH]1,10%
Cc1ccc(Cn2nnc3c(=O)[nH]c(C4CCN(S(=O)(=O)c5ccc(S(=O)(=O)NC6CC6)cc5)CC4)nc32)cc1,9%
CCn1nc(C)c(Oc2ccccc2O)c1C,-9%
CS(=O)(=O)N1CCN(C(=O)NC23CC4CC(CC(C4)C2)C3)CC1,-7%
CN(CC(=O)NCCc1ccc(S(N)(=O)=O)cc1)CC(=O)Nc1ccc(Cl)cc1,5%
O=[N+]([O-])c1cc2nc(O)c(O)nc2cc1[N+](=O)[O-],3%
COc1cccc(-c2nnc(SCCOc3ccc4c(C)cc(=O)oc4c3)o2)c1,15%
O=S(=O)(Nc1cccc(-c2nnco2)c1)c1ccc(Cl)cc1,-15%
CCCN(Cc1cc2cccc(C)c2[nH]c1=O)C(=O)c1cccc(OC)c1,-5%
Cc1ccc(C)c(S(=O)(=O)N2CCCOC2CNC(=O)C(=O)NCCc2ccco2)c1 (stereo not drawn),1%
O=[N+]([O-])c1ccc(N/N=C2/CCCCC2c2ccccn2)c([N+](=O)[O-])c1 (stereo not drawn),u
CCN(c1ccccc1)S(=O)(=O)c1cccc(C(=O)NCc2ccccn2)c1,6%
CCOc1ccccc1C(=O)NCC(=O)NC(C)c1ccc(-n2ccnc2)cc1 (stereo not drawn),-6%
Cc1c(C(=O)NC(C)c2ccccc2)c(-c2ccccc2)nn1-c1ccccc1 (stereo not drawn),-16%
CCN(CC(=O)Nc1ccccc1OC)C(=O)c1cc(S(=O)(=O)N2CCCCCC2)ccc1OC,8%
Cc1ccc(C)c(NC(=O)CN(C)C(=O)C2=NNC(=O)CC2)c1,-10%
CCOC(=O)c1sc(N/N=C/c2ccc(N(C)C)cc2)nc1C,10%
COCCCNC(=O)c1cc(-c2cccnc2)nc2ccc(S(=O)(=O)N3CCC(C)CC3)cc12,13%
COCCNC(=O)CSc1ncnc2sccc12,-9%

# Taken from above:
# CCCN(Cc1cc2cccc(C)c2[nH]c1=O)C(=O)c1cccc(OC)c1 in VDR inh is entered as -5%
# Cc1ccc(C)c(S(=O)(=O)N2CCCOC2CNC(=O)C(=O)NCCc2ccco2)c1 (stereo not drawn) in VDR inh is entered as 1%

# An excerpt from above in order of length of the SMILES, rising.
SMILES,VDR inh
COCCNC(=O)CSc1ncnc2sccc12,-9%
CCOC(=O)c1sc(N/N=C/c2ccc(N(C)C)cc2)nc1C,10%
O=S(=O)(Nc1cccc(-c2nnco2)c1)c1ccc(Cl)cc1,-15%
Cc1ccc(C)c(NC(=O)CN(C)C(=O)C2=NNC(=O)CC2)c1,-10%
CCOc1ccccc1C(=O)NCC(=O)NC(C)c1ccc(-n2ccnc2)cc1 (stereo not drawn),-6%
CCN(CC(=O)Nc1ccccc1OC)C(=O)c1cc(S(=O)(=O)N2CCCCCC2)ccc1OC,8%
